MLL AF4-AF9 inh: inhibitors of AF4 peptide binding to AF9, primary screen, biochemical, AlphaScreen, biotin-AF4 peptide, FLAG-AF9, single point; inhibition, % at 10 µM; 350,000 tested, 0.47% active; Protein AF-9 (Homo sapiens), P42568;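 active = every replicate reaching a set inhibition limit, whatever the replicate mean, cut at about 25% in these data; inconclusive = mean inhibition reaches that limit but some replicates miss it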;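 also: 0% = plate neutral control median and 100% = total signal loss; the record names both 10 and 1 µM as test concentration; the first replicate is given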
Target sequence (P42568 whole entry, looked up): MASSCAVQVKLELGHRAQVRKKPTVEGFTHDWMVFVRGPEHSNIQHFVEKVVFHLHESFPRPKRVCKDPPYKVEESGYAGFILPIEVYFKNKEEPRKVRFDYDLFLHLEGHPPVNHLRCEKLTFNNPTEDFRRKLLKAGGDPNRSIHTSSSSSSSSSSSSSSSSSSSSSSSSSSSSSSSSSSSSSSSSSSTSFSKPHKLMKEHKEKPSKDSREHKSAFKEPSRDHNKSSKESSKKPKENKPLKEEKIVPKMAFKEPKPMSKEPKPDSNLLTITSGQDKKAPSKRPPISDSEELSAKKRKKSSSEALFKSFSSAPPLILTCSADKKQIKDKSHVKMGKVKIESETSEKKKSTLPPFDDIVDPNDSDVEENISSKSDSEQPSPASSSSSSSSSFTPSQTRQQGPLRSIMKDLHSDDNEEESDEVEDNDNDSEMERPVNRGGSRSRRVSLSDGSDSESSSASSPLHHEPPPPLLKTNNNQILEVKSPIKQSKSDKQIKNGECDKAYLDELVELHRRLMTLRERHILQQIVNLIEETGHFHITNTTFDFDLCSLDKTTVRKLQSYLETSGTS
HNF4A DNA FP: change in binding of human HNF4A to DNA, primary screen, biochemical, fluorescence polarization, FITC-DNA; Hepatocyte nuclear factor 4-alpha (Homo sapiens), P41235; 1 h; activity change, % at 10 µM; 360,000 tested, 0.3% active; in the data active = activity change above about 30%, passing the limit was not always enough;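 also: controls were the assay level and a saturating level of protein; the project sought stronger binding though the title names inhibitors; some compounds called inactive have numbers as strong as hits; positive values seem to mean higher polarization but the record does not say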
Ecoli growth: E. coli growth inhibition, primary screen, OD600. Escherichia coli growth, 23 h; active compounds read low. OD600 absorbance (concentration not given with the values). 330,000 tested, 0.21% active;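 active = OD600 absorbance below the run mean of sample wells minus 3.6 SD, in any replicate, cut at about 0.56 in these data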;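 also: stock transfer was 300 nL into about 60 µL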
ALR inh: inhibitors of human ALR sulfhydryl oxidase, primary screen, biochemical, H2O2 detection, HRP-luminol luminescence, single point. 290,000 tested, 3.8% active. AID 485317, 2010. inhibition, % (no concentration beside the values). purified ALR, DTT oxidation;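 active = mean and each replicate at 75% or more; inconclusive = only one of the two met; inactive = neither met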;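 also: stock transfer was 7.5 nL into about 7.5 µL; 0% = neutral wells and 100% = wells with inactivated enzyme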
Target sequence (P55789 whole entry, looked up): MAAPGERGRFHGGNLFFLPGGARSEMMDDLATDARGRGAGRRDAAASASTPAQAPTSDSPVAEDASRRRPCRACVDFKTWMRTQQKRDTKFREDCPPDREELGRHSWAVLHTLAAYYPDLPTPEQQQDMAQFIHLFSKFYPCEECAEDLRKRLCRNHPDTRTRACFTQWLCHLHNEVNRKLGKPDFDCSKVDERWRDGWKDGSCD
FGF22 binding: binders of human FGF22 protein, primary screen, FGF22 synaptogenesis inhibitor project, biophysical, thermal shift, single point | 340,000 tested, 1.5% active | calls only at 9.99 µM | recombinant FGF22 thermal shift, SYPRO orange fluorescence; percent of sucrose octasulfate shift, DMSO zero | Fibroblast growth factor 22 (Homo sapiens), Q9HCT0 | AID 651658, 2012;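 active = melting point raised past a set limit in the mean and every replicate; inconclusive = no clear call; three in four hits are not shown here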
Target sequence (Q9HCT0 whole entry, looked up): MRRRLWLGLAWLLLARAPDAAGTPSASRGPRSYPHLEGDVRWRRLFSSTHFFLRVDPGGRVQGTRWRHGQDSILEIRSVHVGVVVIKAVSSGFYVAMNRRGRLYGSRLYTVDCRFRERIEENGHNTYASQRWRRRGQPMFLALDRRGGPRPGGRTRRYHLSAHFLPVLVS
Ecoli rRNA inh: reduced GFP signal of wild-type E. coli, primary screen, bacterial rRNA inhibitor project, GFP/RFP fluorescence, OD600, single point; 350,000 tested, 1.6% active; GFP signal change (wild-type ribosome), % (concentration not given with the values); E. coli WT GFP vs humanized-ribosome RFP mutants, 24 h; active compounds read low; DMSO median 0, no signal -100; AID 720706, 2013;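 active = significant combined selectivity score with lowered wild-type GFP, culture density cut under 30%, mutant RFP and density less affected; inactive = any of these conditions unmet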; also: one replicate is shown; some compounds called inactive have numbers as strong as hits
Vif A3G: inhibitors of Vif binding to APOBEC3G peptide, primary screen, biochemical, TR-FRET, GST-Vif 1-94, biotin-A3G peptide, dose response retest (AID 1117319) | Virion infectivity factor (Human immunodeficiency virus type 1 group M subtype B (isolate … | TR-FRET GST-Vif / biotin-A3G peptide binding; higher % means a stronger effect; test concentration not given here; strong numbers were not always called active | one-dose inhibition, %; IC50 in µM for titrated hits | 260,000 tested, 0.57% active;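 active = above the screen mean plus three standard deviations and confirmed in dose response; inconclusive = results disagree or hit not tested in dose response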;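 also: Vif residues 1-94 fused to GST binding biotinylated APOBEC3G peptide 110-148; 0% = full assay without inhibitor and 100% = GST in place of GST-Vif; retest series ran down from 100 µM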
Ecoli rRNA inh OD600: recorded beside Ecoli rRNA inh, whose call it bears; OD600 change, %; measured here: OD600 growth;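 optical density of the mix in the first replicate; 0 = DMSO median and -100 = no signal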
Ecoli rRNA inh RFP: also measured in Ecoli rRNA inh; calls as there; RFP signal change, %; measured here: RFP humanized mutant strains;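 first replicate; 0 = DMSO median and -100 = no signal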
Active calls of the source: *; i = inactive; ? = inconclusive; . = no result given; & = joins results of further samples. An excerpt; the hit share may differ from the screen's.

SMILES	MLL AF4-AF9 inh	HNF4A DNA FP	Ecoli growth	ALR inh	FGF22 binding	Ecoli rRNA inh	Ecoli rRNA inh OD600	Ecoli rRNA inh RFP	Vif A3G
Cc1[nH]c(=O)[nH]c(=O)c1S(=O)(=O)N1CCCC(C(=O)N2CCN(c3cccc(C(F)(F)F)c3)CC2)C1 (stereo not drawn)	-0.1	2.5	0.661	16.4	i	-5.7	1.9	-0.7	-3.6%
Cc1ccc(CCNS(=O)(=O)c2ccc(C)cc2)cc1	.	-2.0	0.686	-4.4	.	.	.	.	-3.8%
COc1ccc(Cn2c(C3CC3)nc3ccc(NC(=O)c4ccco4)cc3c2=O)cc1	.	-1.1	0.69	1.5	.	.	.	.	3.1%
O=C(C1=C[C@H](c2coc3ccccc3c2=O)C[C@H](OCc2ccc(CO)cc2)O1)N1CCN(Cc2ccccc2)CC1	.	2.2	.	-15.9	.	.	.	.	7.6%
COC(=O)c1nn(-c2ccc(Oc3ccccc3)cc2)c(=O)cc1O	-2.0	-0.3	0.662	16.4	i	1.3	4.4	-1.4	2.6%
CCCCn1c(N)c(N(CC)C(=O)C(c2ccccc2)c2ccccc2)c(=O)[nH]c1=O	-1.5	1.2	0.705	-11.1	i	14.1	11.0	4.1	12.4%
C[C@H]1CN([C@@H](C)CO)C(=O)CCCn2cc(nn2)CO[C@@H]1CN(C)C(=O)CCC(F)(F)F	-3.0&-0.7&-1.1	1.6	.	.	i	11.0&2.9	10.0&0.9	-2.5&0.6	-1.2%
CC(C)C(=O)Nc1ccc2c(c1)C(=O)N(C)[C@@H]1CC[C@H](CC(=O)Nc3ccccc3)O[C@H]1CO2	-1.9	.	.	.	i	3.3	3.3	-2.0	.
CCn1c(SCC(=O)OC2CCCCC2)nnc1-c1ccncc1	.	-6.1	0.72	-0.2	.	.	.	.	0.2%
O=C(Nc1cccc(Cl)c1)N[C@H]1CC[C@@H](CCNC(=O)C2CCCC2)O[C@H]1CO	-0.9	.	.	.	i	-2.9	-7.0	5.1	.
C[C@@H]1CN([C@H](C)CO)C(=O)c2cc(NC(=O)c3ccccc3)ccc2O[C@@H](C)CCCCO[C@@H]1CN(C)Cc1ccc(Cl)c(Cl)c1	-0.8	.	.	.	i	-3.1	-0.9	3.2	.
CCOC(=O)c1nnn2c1nc(N1CCN(c3ccccc3)CC1)c1ccccc12	3.3	2.4	0.671	7.5	i	-12.4	-7.6	-2.1	-3.5%

Filtered by structure: the entries above containing a Cl atom.
SMILES	MLL AF4-AF9 inh	HNF4A DNA FP	Ecoli growth	ALR inh	FGF22 binding	Ecoli rRNA inh	Ecoli rRNA inh OD600	Ecoli rRNA inh RFP	Vif A3G
O=C(Nc1cccc(Cl)c1)N[C@H]1CC[C@@H](CCNC(=O)C2CCCC2)O[C@H]1CO	-0.9	.	.	.	i	-2.9	-7.0	5.1	.
C[C@@H]1CN([C@H](C)CO)C(=O)c2cc(NC(=O)c3ccccc3)ccc2O[C@@H](C)CCCCO[C@@H]1CN(C)Cc1ccc(Cl)c(Cl)c1	-0.8	.	.	.	i	-3.1	-0.9	3.2	.

The listing picks up, starting 2 compounds before the break.
SMILES	MLL AF4-AF9 inh	HNF4A DNA FP	Ecoli growth	ALR inh	FGF22 binding	Ecoli rRNA inh	Ecoli rRNA inh OD600	Ecoli rRNA inh RFP	Vif A3G
C[C@@H]1CN([C@H](C)CO)C(=O)c2cc(NC(=O)c3ccccc3)ccc2O[C@@H](C)CCCCO[C@@H]1CN(C)Cc1ccc(Cl)c(Cl)c1	-0.8	.	.	.	i	-3.1	-0.9	3.2	.
CCOC(=O)c1nnn2c1nc(N1CCN(c3ccccc3)CC1)c1ccccc12	3.3	2.4	0.671	7.5	i	-12.4	-7.6	-2.1	-3.5%
COc1cc2c(cc1OC)C(c1cccc(Cl)c1)CC(=O)N2 (stereo not drawn)	2.0	-1.7	0.642	-2.2	i	-16.4	-21.3	-1.8	5.5%
COc1ccccc1NC(=O)C(C)Sc1nnnn1C (stereo not drawn)	.	1.8	0.662	-3.8	.	.	.	.	.
O=C(CNS(=O)(=O)c1ccc2ccccc2c1)OCc1csc(-c2ccccc2)n1	.	-0.3	0.717	98.6*	.	.	.	.	1.2%
COc1ccc(CCN2C(=NC(=O)CC(C)C)SC3CS(=O)(=O)CC32)cc1 (stereo not drawn)	3.8	3.9	0.739	-1.7	i	8.0	3.7	-8.2	2.1%
COc1cccc(CN(C)CC2CCCN(CCc3ccc(Cl)cc3)C2)c1OC (stereo not drawn)	4.5	-0.2	0.599	.	.	1.3	-14.6	23.1	.
NC(=O)CSc1oc(-c2ccco2)nc1S(=O)(=O)c1ccc(Cl)cc1	.	-2.1	0.717	-5.3	.	.	.	.	.
COC(=O)C1=C(CS(=O)(=O)c2cc(Cl)ccc2OC)NC(=O)NC1c1ccc(O)c(OC)c1 (stereo not drawn)	3.0	-3.5	0.64	17.7	.	3.6	-2.6	-0.2	-2.0%
COCCNc1cc(N)c([N+](=O)[O-])cc1[N+](=O)[O-]	-25.8	44.6*	0.649	-5.9	i	-24.8	-5.5	21.6	4.4%
CCOc1ccc(S(=O)(=O)NCCSCc2ccco2)cc1	0.3	0.7	0.63	-3.2	i	-1.4	-5.0	2.3	2.7%
Cc1cc(Cl)ccc1C(=O)C1CCCN(C(=O)c2nonc2C)C1 (stereo not drawn)	-14.9	1.1	0.669	-1.1	i	-15.2	-43.2	-5.6	.
O=C(Nc1ccc(Cl)cc1)Nc1nc(-c2ccccc2)cs1	-4.8	-1.1	.	0.2	i	-37.7*	-19.4*	0.4*	9.1%
CC(C)n1cc(CN2CCC(n3nccc3NC(=O)Cc3ccccc3)CC2)cn1	0.6	-2.1	0.709	-9.8	i	13.9	22.6	4.5	5.7%
CC(C)(C)C(=O)NC1CCN(S(=O)(=O)c2ccccc2F)CC1	.	-0.8	0.689	.	.	.	.	.	3.2%
COc1ccc(OC(C)C(=O)N2CCc3ccccc3C2)cc1 (stereo not drawn)	.	0.9	0.698	-5.7	.	.	.	.	19.8%
C=CCN(CC=C)C(=O)COn1nnc2ccc(S(=O)(=O)N3CCOCC3)cc21	1.7	0.0	0.703	1.1	i	7.0	9.1	-2.4	.
COc1cccc(C(=O)/C(C#N)=N/Nc2cccc(-c3ccnc(C)n3)c2)c1	.	0.8	.	3.0	i	-7.7	-2.9	0.9	.
C[C@H](CO)N1C[C@H](C)[C@@H](CN(C)Cc2ccc(-c3ccccc3)cc2)Oc2ccc(NC(=O)C3CCCCC3)cc2CC1=O	-0.3	.	.	.	i	-3.1	-0.2	2.3	.
CC(C)(C)NC(=O)c1oc2ccccc2c1COc1ccccc1	-7.8	1.0	0.682	?	i	-0.2	-18.1	-6.3	4.3%
CCn1c(SCC(=O)OCc2ccccc2)nc2c1c(=O)n(C)c(=O)n2C	.	-1.7	0.675	98.8*	.	.	.	.	4.0%
CC1CC(C)CN(C(=O)COC(=O)c2cc3ccccc3oc2=O)C1 (stereo not drawn)	-1.2	-0.4	0.708	2.3	i	5.7	7.8	0.6	-4.8%
CCN(CC(=O)Nc1ccc(NC(C)=O)cc1)C(=O)C1(c2ccccc2)CC1	-0.5	-2.4	0.675	-0.6	i	5.3	12.2	-0.1	-0.1%
Cc1ccc(C)c(CN2C(=O)COc3ccccc32)c1	-2.1	5.0	0.602	.	i	.	.	.	0.4%
Cc1ccc(S(=O)(=O)N2CC(O)CC2C(=O)OCC(=O)Nc2ccc([N+](=O)[O-])cc2C(F)(F)F)cc1C (stereo not drawn)	0.7	-1.8	0.692	-10.4	i	-1.9	-7.6	1.3	.
CC1(C)CC(=O)C(C=Nc2ccc(O)cc2)=C(O)C1	-8.1	-0.9	0.672	99.1*	i	4.7	8.3	1.6	21.5%
O=C(CSCc1ccccc1Cl)N/N=C/c1ccco1	3.9	-0.5	.	-2.9	i	4.8	2.8	2.2	-14.3%
Cc1cc(N(CCO)CCO)ccc1C(c1ccc(N(CCO)CCO)cc1C)c1ccccc1Cl	.	0.1	0.681	44.4	.	.	.	.	.
CCS(=O)(=O)N1CCN(CC2CC3C=CC2C3)CC1 (stereo not drawn)	.	4.8	0.656	-4.9	.	.	.	.	2.6%
CCn1c(SCC(=O)Nc2ccc3c(c2)OCCO3)nnc1-c1c[nH]c2ccccc12	-2.2	4.2	0.662	.	i	-14.4	-23.0	-0.3	4.5%
CO[C@@H]1CN(C)C(=O)c2cc(NC(C)=O)ccc2OC[C@H](C)N(Cc2cc(F)ccc2F)C[C@@H]1C	3.1	.	.	.	i	0.4	3.0	0.0	.
CC(C)(Oc1ccc(Cl)cc1)C(=O)OCC(=O)N1CCCC1	.	-2.6	0.713	-0.4	.	.	.	.	-5.3%
CCOC(=O)C1=C(O)/C(=C/c2ccc(CNC(=O)C(=O)Nc3ccc(C)cc3)o2)N=C1C	.	1.4	0.767	.	.	.	.	.	33.3µM*
COc1ccc(C(=O)OCC(=O)NC2CC2)cc1F	6.8	-3.7	0.691	-3.4	i	14.8	15.8	1.7	7.1%
C[C@@H]1CN([C@@H](C)CO)C(=O)Cc2cc(NC(=O)CCC(F)(F)F)ccc2O[C@H]1CN(C)S(=O)(=O)c1ccccc1	0.4	.	.	.	i	-3.4	-6.5	-1.9	.
CC1CCC(NC(=O)c2cc3ccccc3cc2O)CC1 (stereo not drawn)	-1.3	-6.2	0.681	-11.7	i	-12.3	-15.7	1.7	.
O=C(Nc1ccc2c(c1)CCC2)c1cccc(OC(F)F)c1	-1.6	1.9	0.624	7.9	i	-24.1*	-14.3*	-5.4*	.
CCn1c(SCc2nc3ccccc3[nH]2)nnc1-c1cccs1	7.3	-0.1	0.61	.	i	-6.1	10.2	1.6	1.8%
O=C(CNC(=O)c1ccc(Cl)cc1)c1ccc(Cl)cc1	2.1	-0.8	0.661	0.1	i	-1.6	1.7	0.2	-2.1%
COCc1ccc(CN2CCC(N3CCC(C(=O)N4CCCC4)CC3)CC2)o1	0.3	2.0	.	1.2	i	21.2	13.7	1.5	.
COc1ccc(NC(=O)Nc2ccc3c(c2)C(=O)N([C@@H](C)CO)C[C@@H](C)[C@@H](CN(C)C(=O)Nc2ccc(OC)cc2)O3)cc1	1.0	.	.	.	i	-0.8	-1.7	-0.2	.
O=C(c1ccco1)N1N=C(c2cccs2)CC1c1ccccc1O (stereo not drawn)	-3.9	7.9	0.695	12.3	i	4.4	4.2	5.5	0.6%
CN(C)C(=O)C[C@H]1CC[C@@H]2[C@H](COC[C@H](O)CN2CC2CC2)O1	-2.3	.	.	.	i	-2.4	1.9	-5.8	.
C=C(C)COc1ccc2c(C)c(CC(=O)N3C[C@H]4C[C@@H](C3)c3cccc(=O)n3C4)c(=O)oc2c1C	0.1	2.6	0.692	-2.1	i	.	.	.	.
CO[C@@H]1CN(C)C(=O)c2ccc(NC(=O)Cc3ccccc3)cc2OC[C@H](C)N(CC2CC2)C[C@@H]1C	0.5	.	.	.	i	0.6	-0.7	-1.9	.
COc1ccc(NC(=O)CSc2nc3ccccc3c(=O)n2CCCC(=O)NCC2CCCO2)c(OC)c1 (stereo not drawn)	-0.8	4.7	0.685	-1.6	i	-6.7	7.6	-0.6	6.1%
